TRPML1 ag: human mucolipin-1 channel agonism. activation, % (test concentration not listed). TRPML1-expressing cells, Ca2+ dye fluorescence, FDSS; host cell line not named in the record; reference of the full effect not given here. Q9GZU1. 0.12% of 410,000 active; in the data active = activation above about 50%; inconclusive = about 30% to 50%; inactive = below about 30%; also: 0% is about no effect; the text of the record puts the active cut at 80%
Target sequence (Q9GZU1 whole entry, looked up): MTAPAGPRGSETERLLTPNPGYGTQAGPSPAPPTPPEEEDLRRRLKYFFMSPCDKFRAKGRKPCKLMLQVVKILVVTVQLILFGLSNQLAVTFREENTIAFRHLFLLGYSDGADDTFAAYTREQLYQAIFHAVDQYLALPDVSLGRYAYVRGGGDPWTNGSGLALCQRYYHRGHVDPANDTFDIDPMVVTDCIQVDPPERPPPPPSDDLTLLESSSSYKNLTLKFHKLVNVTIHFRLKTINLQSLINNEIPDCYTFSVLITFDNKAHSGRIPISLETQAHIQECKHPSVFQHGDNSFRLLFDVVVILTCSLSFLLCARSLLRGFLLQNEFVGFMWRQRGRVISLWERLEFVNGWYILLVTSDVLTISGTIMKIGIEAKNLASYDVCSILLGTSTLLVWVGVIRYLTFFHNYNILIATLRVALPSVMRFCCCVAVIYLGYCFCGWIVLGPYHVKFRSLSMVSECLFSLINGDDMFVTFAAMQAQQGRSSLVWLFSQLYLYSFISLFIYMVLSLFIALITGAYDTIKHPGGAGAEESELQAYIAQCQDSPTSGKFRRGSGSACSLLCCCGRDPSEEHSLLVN
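Calcium fluorescence on an FDSS kinetic reader gave the read-out. Tet-induced TRPML1-DL cells were plated overnight, dye-loaded (Ca8 with quencher, 45-90 min, room temperature, dark), then read 110 s after compound addition, and again 110 s after 4uM final 54-4 (EC80).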
D2 ag: human D2 receptor agonism in beta-arrestin assay. P14416. DiscoveRx PathHunter D2 beta-arrestin, luminescence, 90 min; 100% = 57 uM dopamine signal. activation, % (no concentration beside the values). 0.084% of 360,000 active; in the data active = activation above about 40%; inconclusive = about 15% to 40%; inactive = below about 15%; also: compound concentration not given in the record; the text of the record calls up to 30% inactive
Target sequence (P14416 whole entry, looked up): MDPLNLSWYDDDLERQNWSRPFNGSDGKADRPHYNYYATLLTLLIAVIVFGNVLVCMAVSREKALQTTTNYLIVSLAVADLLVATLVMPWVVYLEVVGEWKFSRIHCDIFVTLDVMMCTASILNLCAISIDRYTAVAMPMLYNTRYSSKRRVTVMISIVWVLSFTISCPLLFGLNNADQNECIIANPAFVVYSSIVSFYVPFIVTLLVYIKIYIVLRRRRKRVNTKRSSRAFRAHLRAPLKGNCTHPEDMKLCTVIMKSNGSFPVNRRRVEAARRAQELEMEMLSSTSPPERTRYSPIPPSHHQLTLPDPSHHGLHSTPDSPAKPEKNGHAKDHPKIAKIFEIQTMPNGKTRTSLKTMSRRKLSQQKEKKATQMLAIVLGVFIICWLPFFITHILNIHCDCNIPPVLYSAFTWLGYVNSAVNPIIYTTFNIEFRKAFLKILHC
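DiscoveRx PathHunter D2 beta-arrestin cells (2,100/well) attached overnight, then compound-stimulated 90 min at 37 C in HBSS/10 mM HEPES/0.1% Tween-20 buffer; beta-galactosidase complementation read by luminescence after 1 h at ambient temperature. Dopamine 57 uM final (EC100) as control.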
CtBP-E1A blk: inhibitors of CtBP/E1A interaction. AlphaScreen GST-E1A/His-CtBP binding, 1536-well; hits give low values; control for the full effect not named in the record. activity change, % (no concentration beside the values). 0.49% of 340,000 active; in the data active means activity change below about -65%; inconclusive means about -30% to -65%; inactive means above about -30%; also: % is scaled to controls: 0 for no effect and ±100 for the full control effect; compound concentration not given in the record
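Homogeneous bead-based format: GST-tagged E1A captured on glutathione donor beads, His-tagged CtBP on nickel acceptor beads; compounds precede bead addition by 2 h at 37 °C.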
TRPML1 blocker: blocks the human TRPML1 channel; TRPML1-inducible cells, Ca2+ dye fluorescence, FDSS; hits give low values; inhibition of EC80 agonist-evoked calcium signal; Q9GZU1; activity change, negative = inhibition, % (test concentration not listed); 0.02% of 390,000 active; in the data active means activity change below about -50%; inconclusive means about -30% to -50%; inactive means above about -30%;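 also: stimulus is agonist 54-4 at its EC80 concentration; % is scaled to controls: 0 for no effect and ±100 for the full control effect; compound concentration not given in the record; the text of the record puts the active cut at -80%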
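TRPML1-DL cells, Tet-induced overnight (~16 h, 37 °C) at 1,500 cells/well, were loaded with Ca8 no-wash dye plus quencher for 45-90 min at room temperature. Compounds were pinned during FDSS kinetic reading; agonist 54-4 at EC80 (4 uM final) then added.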
PINK1 expr mod: modulators of PINK1 expression | PINK1 immunofluorescence, high-content cytometry, 24 h | Potency, µM (titrated, usually from 76.6 µM), for the others: at the top dose activation (PINK1 increase), hits mostly activators | 0.2% of 410,000 active; active = well fitted activation curve with a large enough effect; inconclusive = small, poorly fitted or top-dose-only effect; inactive = flat fitted curve, though single readings scatter; cell line not stated here;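 also: potency is read from the fitted curve at half-maximal effect; % of control where 0% means no effect; nearly all actives have a fitted effect of over 65% in size; a mitochondrial uncoupler was the plate control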
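Stable cell line treated 24 h with compounds at 5 concentrations (CCCP controls), then fixed and immunostained for PINK1 plus nuclear and cell stains; PINK1 immunofluorescence quantified by laser-scanning microplate cytometry.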
Six1-Eya2 blk: blocks human Six1 binding to Eya2. AID 651725. activity change, % (concentration not given with the values). 0.56% of 360,000 active. AlphaScreen GST-Six1/His-Eya2 binding, biochemical; hits give low values; control for the full effect not named in the record. Q15475+O00167; in the data active = activity change below about -65%; inconclusive = about -30% to -65%; inactive = above about -30%; also: % is scaled to controls: 0 for no effect and ±100 for the full control effect
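GST-Six1 + His-Eya2 (5X stock: 250/500 nM); Tris pH 8.0, 300 mM NaCl, 0.05% BSA, 0.02% Tween 20; GSH donor/Ni acceptor beads; 1 h 37 °C dark; AlphaScreen readout.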
Numbers without * were called inactive; ? = inconclusive; / = no result given; & = joins results of further samples; [ ] = dose if it differs, or a comment.

molecule,PINK1 expr mod,TRPML1 blocker,CtBP-E1A blk,Six1-Eya2 blk,TRPML1 ag,D2 ag
CC(NC(=O)OC(C)(C)C)C(=O)NC(CCC(=O)OCc1ccccc1)C(N)=O (stereo not given),-0.9%,-22.5,0.3,6.3,-0.1,0.5
CCC(=O)Nc1ccc(/C(C)=N/NC(=O)c2c(Br)c(C)nn2C)cc1,9.3%,-2.7,28.2,14.3,0.3,-3.8
COc1ccc(-c2noc(CSc3nc(N)c(-c4ccccc4)c(=O)[nH]3)n2)cc1OC,1.9%,0.1,-6.7,-9.9,1.1,-8.9
O=C(COc1cc(Cl)c(Cl)cc1Cl)Nn1cnnc1,0.8%,-8.6,-0.8,-0.1,-0.5,-2.6
COc1ccc(C(=O)Nc2ccccc2N2CCCC2)cc1S(=O)(=O)N1CCOCC1,0.4%,29.1,-5.6,0.1,-0.3,-2.2
Cc1cc(C)cc(N(C(=O)CNC(=O)c2ccco2)C(C(=O)NC2CCCC2)c2ccncc2)c1 (stereo not given),-1.5%,4.4,5.6,7.8,-0.1,-2.5
O=S(=O)(c1ccc2nc(NCc3ccccc3Cl)ccc2c1)N1CCCCC1,-0.3%,-24.5,/,/,0.3,/
Cc1ccc(NC(=O)COC(=O)CCC(=O)c2ccc(Cl)cc2)cc1S(=O)(=O)N(C)C,2.4%,19.4,5.5,2.1,1.4,-4.6
Cc1ccc2ccccc2c1C(O)c1ncc(-c2ccccc2)[nH]1 (stereo not given),1.3%,/,-4.1,-4.7,-0.5,?
COc1ccccc1C1CC(c2ccco2)=NN1S(C)(=O)=O (stereo not given),5.9%,-23.3,1.4,2.5,0.6,-0.7
COc1ccc(CCNS(=O)(=O)c2ccc3c(c2)oc(=O)n3C)cc1OC,0.0%,-16.4,-15.5,5.1,0.2,1.0
CCOc1ccc(CNC(=O)CCC(=O)N2Cc3ccccc3Oc3ncccc32)cc1,-0.7%&0.3%,-13.4&9.4,-1.6,-8.4,-0.7&0.7,-0.4
CC(=O)Nc1ccc(NC(=O)c2c(C)c(-c3ccccc3)nc3ccccc23)cc1,2.0%,29.2,-1.1,-23.6,0.2,-0.8
Cc1nc2ccccc2n2c(O)c(CC(=O)O)cc12,1.3%[38.3 µM],-4.8,4.4,-25.6,8.2,14.2
CCCCn1c(N)c(N(CC)C(=O)C2CCN(C(=O)c3ccccc3C)CC2)c(=O)[nH]c1=O,-0.3%,-6.9,6.6,6.8,-0.8,4.2
O=C(NC(Cc1ccc(O)cc1)C(=O)N=Nc1c(O)[nH]c2ccccc12)c1ccccc1 (stereo not given),1.8%,3.9,-0.2,0.6,1.6,-3.6
Cc1cccc(N2CCN(C(=O)c3ccc4c(c3)CCN4S(C)(=O)=O)CC2)c1C,-1.9%,6.4,0.2,-5.0,-0.8,2.3
CC[C@@H]1CC2=C(C(=O)OC(C)(C)O2)[C@@H](c2ccc(Cl)cc2)O1,-0.9%,/,7.4,9.1,-1.3,/
COc1cc(C(C(=O)NC2CCCCC2)N(C(=O)c2cnccn2)c2ccccc2)cc(OC)c1OC (stereo not given),1.3%,-1.3,0.5,1.6,0.3,-2.4
COc1cccc(N2CCN(C(=O)c3cnn(-c4ccccc4Cl)c3C3CCN(C(=O)OC(C)(C)C)CC3)CC2)c1,-1.5%,-2.8,/,/,16.1,/
CCCC(=O)c1ccc(N2CCN(C(=O)OCC)CC2)c(F)c1,1.1%[38.3 µM],4.3,3.4,4.4,0.9,2.1
C=C(C)CNc1cc(S(=O)(=O)N2CCOCC2)ccc1Oc1ccccc1,1.9%,16.2,-2.6,-0.1,2.0,-6.7
O=[N+]([O-])c1cc2no[n+]([O-])c2cc1N1CCCCC1,-6.5%,-12.7,0.9,-29.8,0.6,9.3
Cc1cccc(C(=O)NCC(=O)OCc2nc(N)nc(Nc3ccccc3C)n2)c1,-0.4%,-14.8,7.6,-2.8,0.1,-1.9
O=C(Nc1ccc(Cl)cc1)[C@@H]1[C@@H]2C(=O)N(c3ccc4ccccc4c3)C(=O)[C@@H]2[C@H]2C=CC=NN21,-0.4%,-12.5,-13.2,-13.3,-0.7,-2.4
CC(=O)N1CCc2cc(C(=O)CN3CCN(c4ccccn4)CC3)ccc21,0.1%,-1.8,0.8,7.6,-0.5,?
COc1cccc(Cn2cccc(NC(=O)NC3CCCCC3)c2=O)c1,0.9%,-4.9,-9.3,-8.0,-0.2,-0.4
Cc1cccc(N(CC(=O)NCCc2ccccc2)S(=O)(=O)c2ccccc2)c1C,2.0%,29.6,/,/,0.4,/
C/C(=C\C(=O)c1ccc(Cl)s1)N(C)C,2.1%,-16.1,3.6,-0.4,0.1,-1.7
Cc1ccc(C(C(=O)NC2CCCC2)N(Cc2cccs2)C(=O)CNC(=O)c2cccs2)o1 (stereo not given),-0.4%,-2.7,1.9,-3.9,-0.8,-3.4
Cc1ccc(CN2CCN(CCC(C)C)C(CCO)C2)s1 (stereo not given),4.8%,-21.7,-3.0,3.3,0.5,-2.6
Cc1cccc2sc(N(CCCN(C)C)C(=O)c3ccc(C(=O)c4ccccc4)cc3)nc12,-1.7%,3.6,?,?,-0.1,5.1
Cc1nn(CCC#N)c(NC(=O)c2ccc(Cl)cc2)c1P(=O)(Nc1ccc([N+](=O)[O-])cc1)N1CCOCC1 (stereo not given),-1.6%,-3.4,-13.6,-2.4,1.0,-0.9
CCCCN(C=O)c1c(CC)nc2ccc(C(=O)NCCCn3ccnc3)cn12,2.8%,/,6.3,7.0,-0.3,-6.2
NS(=O)(=O)c1ccc(NC(=O)C2C3C=CC(C3)C2C(=O)O)cc1 (stereo not given),-1.5%,1.6,0.3,-2.8,-0.7,-4.5
CCOc1ccc(NC(=O)CN2C(=O)C3CCCN3C2=O)cc1 (stereo not given),0.4%,-1.0,0.0,2.2,0.3,-6.2
CC(=O)NC(=S)NNC(=O)c1ccc(Br)cc1,-0.5%,-2.8,-1.1,-1.1,1.6,0.6
CCN(CC(=O)Nc1ccc(C(C)=O)cc1)CC(=O)Nc1cccc(OC)c1,-0.1%,-12.8,-3.5,-0.1,-1.0,-1.9
O=C(Cn1cnc2onc(-c3ccc(F)cc3)c2c1=O)Nc1cccc(C(F)(F)F)c1,25.7%,37.3,/,/,2.7,/
CC(=O)/C(C(=N)N1CCN(Cc2ccccc2)CC1)=C(\C)O,2.9%,-16.6,-1.4,1.5,-0.6,-5.0
CCOc1ccc(CNC(=O)CCC(=O)N2CC(C)Sc3ccccc32)cc1 (stereo not given),0.7%,-19.8,/,/,1.1,/
CC(=O)OCC[C@H](NS(=O)(=O)OCC(Cl)(Cl)Cl)c1ccccc1,5.9%,10.7,-7.1,-8.2,-0.5,-0.1
Cc1ccc(C2CC(c3ccccc3)n3ncnc3N2)cc1 (stereo not given),-0.7%,9.5,1.4,-2.4,0.0,-1.4
CCOC(=O)c1cccc(NC(=O)Nc2ccc(OCC)cc2)c1,7.0%,-8.1,/,-12.3,0.8,7.3
Oc1[nH]c2ccccc2c1N=Nc1ccc(F)cc1,0.8%,12.9,-6.5,-13.4,9.5,-4.8
CCOc1ccc(C(=O)OCC(=O)NCc2ccco2)cc1OCC,0.6%,-0.6,-0.7,-2.9,-1.3,-1.2
CCOC(=O)c1cnc(SCC(=O)c2ccccc2)nc1N,2.5%,6.2,-0.4,-0.7,1.5,-0.4
Cc1ccc(C)c(OC(C)C(=O)Nc2ccc(S(=O)(=O)Nc3nccs3)cc2)c1 (stereo not given),-0.9%,-12.9,-9.7,?,-0.7,0.8
COc1cc(CCCN2C(N)=NC[C@@H]2Cc2ccc(O)cc2)cc(OC)c1OC,-0.4%,-1.1,-0.8,-2.7,-0.8,-0.8
O=C(Nc1cccc(C(F)(F)F)c1)c1cnccn1,1.2%,3.7,22.2,4.1,0.1,5.6
COc1ccc(CCNC(=O)c2c(C)oc3ncnc(N4CCOCC4)c23)c(OC)c1,9.3%,-13.6,/,/,1.0,/
O=C(c1ccco1)N1CCN(C(=O)N2CCOCC2)CC1,/,11.5,3.9,4.9,0.3,1.1
O=C(c1ccccn1)N1CCN(S(=O)(=O)c2cccc(Br)c2)CC1,-1.2%,-3.5,0.0,3.7,1.5,1.2
CN(C)c1ccc(C(=S)N2CCN(S(=O)(=O)c3ccccc3)CC2)cc1,0.7%,-3.6,/,-23.9,-1.3,-3.7
CCCCNC(=O)C1(C)CCC(=O)N1CCCn1ccnc1 (stereo not given),-1.1%,/,7.4,3.7,0.2,-2.3
CC1(C)CCC(=O)N(c2ccccc2)C1=O,-0.9%,29.6,2.8,6.4,0.2,-6.9
CC(=O)C1=C(C)N=c2s/c(=C/c3ccc4c(c3)OCO4)c(=O)n2C1c1ccc(N(C)C)cc1 (stereo not given),2.5%,/,-1.3,-9.8,/,-0.9
COc1ccc(NC(=O)Nc2cccc([N+](=O)[O-])c2)cc1Cl,?,19.9,-17.1,-17.1,-0.3,1.6
CCN(CC)C(=O)/C(=C\c1ccc(Br)cc1)NC(=O)c1ccccc1OC,0.4%[38.3 µM],6.1,-3.4,-3.1,-0.2,0.7
CCc1ccccc1NC(=O)CN(C)S(=O)(=O)c1ccc(-c2ccc(=O)[nH]n2)s1,16.2%,1.7,0.5,-4.3,-0.4,-2.0

(next part)
molecule,PINK1 expr mod,TRPML1 blocker,CtBP-E1A blk,Six1-Eya2 blk,TRPML1 ag,D2 ag
NC(=O)c1ccsc1NC(=O)c1ccc([N+](=O)[O-])o1,0.0%,1.6,1.2,8.9,0.0,11.8
CCOc1ccc(-c2c(C)nn3c(C)c(C(=O)Nc4cc(C)cc(C)c4)cnc23)cc1OCC,1.1%,-2.7,/,/,2.6,/
O=S(=O)(Cc1ccccc1Cl)N1CCCCC1,-2.1%,-7.8,-0.4,8.1,4.1,-2.1
Clc1ccccc1N=C1SCCS1,2.2%,16.0,9.2,9.2,1.1,-19.8
CC(=O)Nc1ccc(S(=O)(=O)N(C)c2ccc(OCC(=O)OCC(=O)Nc3ccc(OC(F)F)cc3)cc2)cc1,1.6%,-5.0,-1.6,1.8,-0.8,-2.9
O=C(NC12CC3CC(CC(C3)C1)C2)c1ccc(-c2ccc(Cl)cc2)o1,?,61.8,6.9,-2.9,0.6,-9.0
C[C@]12c3[nH]c4ccccc4c3CCN1C(=O)C(CC(=O)NCCN1CCOCC1)C[C@@H]2C(=O)N1CCOCC1 (stereo not given in full),0.2%,-0.8,0.9,2.0,-0.7,-1.2
C[C@@H]1CCC(=O)N(C[C@@H](C)CC#N)CC1,-0.8%,-12.7,1.6,-2.3,-0.7&-0.1,2.1
COc1cccc(NC(=O)c2cnc(SCC(=O)N3CCCc4ccccc43)n(C)c2=O)c1,-2.9%,34.2,/,/,1.8,/

Rows were taken by chance. About 1% of those tested had a hit in this group.
